# WNV protease inh: blocks West Nile virus NS2B-NS3 protease activity | P06935 | WNV NS2B-NS3 protease, fluorogenic substrate Ex360/Em465; active compounds read low | z-score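 (tested at a level between 10 and 100 µM)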 | 0.18% of 65,000 active | AID 577;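 active = z-score at -3 or under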;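 also: score is relative to mean and spread of the compound wells of a plate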
# Target sequence (P06935 1371-1501 limits assumed): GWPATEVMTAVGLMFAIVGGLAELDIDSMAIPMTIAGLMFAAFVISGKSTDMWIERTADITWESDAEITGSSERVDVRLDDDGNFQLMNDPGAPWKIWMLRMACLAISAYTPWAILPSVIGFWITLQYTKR
# Target sequence (P06935 1502-1679 limits assumed): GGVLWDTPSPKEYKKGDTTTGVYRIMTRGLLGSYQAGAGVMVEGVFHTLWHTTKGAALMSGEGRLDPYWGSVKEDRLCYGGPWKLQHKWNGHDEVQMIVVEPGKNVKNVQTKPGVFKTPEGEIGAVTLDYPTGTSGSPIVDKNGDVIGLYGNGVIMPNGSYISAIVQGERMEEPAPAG
# MT1-MMP promoter: MT1-MMP gene expression reporter suppression – cell-based, luciferase reporter, luminescence (AID 618); 0.62% of 87,000 active; calls from a first round at 10 µM; hits with a dose series show EC50 in µM; MT1-MMP promoter luciferase reporter cells, luminescence;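 active = over half of the reporter light lost at 10 µM or EC50 under 50 µM; inactive = the rest and hits that failed the dose series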;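 also: actives suppress MT1-MMP promoter-driven transcription so potencies describe inhibitors; HT1080 fibrosarcoma cells; overnight exposure; toxic or luciferase-blocking compounds were not removed from the actives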
# Hsc70 ATP site: Hsc70 inhibitors, probe displacement, primary screen, biochemical, fluorescence polarization (AID 568). 83,000 tested, under 10 active. displacement, % at 20 µM, or IC50 in µM where a hit was titrated. Hsc70 fluorescence polarization, probe displacement; higher % means a stronger effect; strong numbers were not always called active;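 active = displacement above 50% without optical interference and an IC50 on retest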;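 also: ATPase domain with a fluorescein-tagged ATP probe; 0% = vehicle and 100% = excess ADP; read after one hour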
# * marks the source's active call; other numbers are inactive results; i = inactive; x = no result given; + = active, no number.
1. COc1ccc(Cn2c(=O)n(Cc3ccco3)c(=N)c3c4c(sc32)COC(C)(C)C4)cc1
2. CCOC(=O)CSc1nc(C)c2ccc(C)cc2n1
3. Cc1ccc(-n2c(=O)cc(N3CCC(C)CC3)[nH]c2=O)cc1
4. CCn1cc(Br)c(C(=O)NC(C)c2ccccc2)n1 (stereo unspecified)
5. Cc1c(O)ccc2c3c(c(=O)oc12)CCCC3

assay / entry | 1 | 2 | 3 | 4 | 5
WNV protease inh | 1.65 | x | -0.94 | -0.99 | 2.63
MT1-MMP promoter | i | i | i | i | i
Hsc70 ATP site | -9.5% | 3.7% | -1.5% | 1.9% | 2.4%

6. CCn1nnnc1SCC(=O)Nc1nc2ccc(OC)cc2s1
7. O=C(COc1ccc(S(=O)(=O)N2CCCC2)cc1Cl)NCc1ccc2c(c1)OCO2
8. CC(C)NC(=O)Nc1cccs1
9. COc1ccccc1C(=O)N1CCN(Cc2ccc3c(c2)OCO3)CC1
10. Cc1c(C(=O)NCc2ccoc2)oc2ccc3c(c12)C(=O)CC(C)(C)O3

assay / entry | 6 | 7 | 8 | 9 | 10
WNV protease inh | x | 1.38 | -1.02 | -0.6 | 1.01
MT1-MMP promoter | i | i | i | i | i
Hsc70 ATP site | -3.2% | 3.8% | 1.2% | 0.0% | 2.1%

11. O=C(O)c1cccc(S(=O)(=O)Nc2ccccc2Cl)c1
12. CCCn1c2c(c(O)c(C(=O)NCc3ccccc3)c1=O)CCCC2
13. CCCCNC(=O)C(C#N)c1nc2ccccc2nc1N1CCN(Cc2ccc3c(c2)OCO3)CC1 (stereo unspecified)
14. Cc1cnn(-c2cc(Oc3ccccc3)ncn2)c1
15. O=C(c1ccco1)N1CCN(CC(=O)N(C2CCCCC2)C2CCS(=O)(=O)C2)CC1 (stereo unspecified)

assay / entry | 11 | 12 | 13 | 14 | 15
WNV protease inh | -0.4 | x | 0.23 | -0.3 | 1.95
MT1-MMP promoter | i | i | i | i | i
Hsc70 ATP site | 3.6% | -4.8% | 29.6% | -2.1% | 3.2%

16. COc1ccc(C2(NC(C)=O)CCN(C(=O)c3cccs3)CC2)cc1
17. CCOC(=O)C1=C(CC)Nc2ccccc2N=C1NC(=O)c1ccc(S(=O)(=O)N(C)C)cc1
18. CC(=O)N(CCC1(C(C)C)CCOC(C)(C)C1)Cc1ccco1 (stereo unspecified)
19. CCCC(=O)Nc1cc(-c2nn(C)c(=O)c3ccccc23)ccc1N1CCCCC1
20. c1ccc(CC2CCN(c3nc4ccccc4n4nnnc34)CC2)cc1

assay / entry | 16 | 17 | 18 | 19 | 20
WNV protease inh | x | x | x | -0.01 | -0.41
MT1-MMP promoter | i | i | i | i | i
Hsc70 ATP site | 5.2% | 5.3% | 2.0% | 0.5% | -29.5%

21. CCCNC(=O)c1ccccc1NS(=O)(=O)c1ccc2c(c1)OCCO2
22. CCN(Cc1cc2ccccc2[nH]c1=O)C(=O)c1cccnc1
23. CN1CCc2c(sc3c2c(=O)n(-c2ccccc2)c2nncn32)C1
24. CNC(=O)c1cc(Nc2nnc(C)c3ccccc23)ccc1OC
25. Cc1cc(C)nc(NC2=NCC(=O)N2c2cc(Cl)cc(Cl)c2)n1

assay / entry | 21 | 22 | 23 | 24 | 25
WNV protease inh | 0.7 | -0.89 | 0.06 | x | -0.35
MT1-MMP promoter | i | i | i | i | i
Hsc70 ATP site | 4.7% | -5.1% | 3.9% | 2.4% | -5.2%

26. N=c1c2c3c(sc2ncn1CCCN1CCOCC1)CCCCC3
27. CCOC(=O)C1Cn2c(nc3c(c2=O)C(C)(C)Cc2ccccc2-3)S1 (stereo unspecified)
28. O=C(Nc1ccc(N2CCN(C(=O)c3ccco3)CC2)cc1)C(c1ccccc1)c1ccccc1
29. CC(Oc1ccccc1F)C(=O)NCCN1CCCCC1 (stereo unspecified)
30. Nc1ccccc1OCCOCCOc1ccccc1N

assay / entry | 26 | 27 | 28 | 29 | 30
WNV protease inh | -0.4 | 0.22 | x | 0.35 | 1.08
MT1-MMP promoter | i | i | i | i | i
Hsc70 ATP site | -8.1% | 2.5% | 5.1% | 4.9% | -1.3%

31. CCOc1cc(NC(=O)c2ccco2)c(OCC)cc1NC(=O)c1cc(OC)c(OC)c(OC)c1
32. CCOC(=O)C(CC)n1cnc2c(nnn2-c2ccc(OC)cc2)c1=O (stereo unspecified)
33. O=C(NC1CCCCC1)C(c1cccs1)N(Cc1cccs1)C(=O)c1cccs1 (stereo unspecified)
34. O=C(c1ccc2ccccc2c1)N1CCN(c2ccc(O)cc2)CC1
35. COc1cc(Br)c(S(=O)(=O)Nc2c(C)n(C)n(-c3ccccc3)c2=O)cc1OC

assay / entry | 31 | 32 | 33 | 34 | 35
WNV protease inh | 0.62 | 0.52 | x | 1.89 | -1.26
MT1-MMP promoter | i | i | i | i | i
Hsc70 ATP site | -1.7% | -3.8% | 2.4% | 0.8% | 1.0%

36. CCOC(=O)Cc1nnc(NC(=O)c2ccco2)s1
37. CCOC(=O)C1=C(C)OC(N)=C(C#N)C1c1ccc(OC)c(C)c1OC (stereo unspecified)
38. CN(C)CCCN1C(=O)CSC1c1ccccc1 (stereo unspecified)
39. COc1ccc(CCNC(=S)Nc2cccc(C)c2C)cc1
40. CCOC(=O)Cn1c(C)nc2c(C(=O)OCC)sc(C)c2c1=O

assay / entry | 36 | 37 | 38 | 39 | 40
WNV protease inh | -0.82 | 0.93 | 2.3 | x | -0.31
MT1-MMP promoter | i | i | i | i | i
Hsc70 ATP site | -12.6% | 3.2% | 0.3% | -3.0% | -7.1%

41. COc1cccc(OC)c1C(=O)N1CCN(Cc2ccc3c(c2)OCO3)CC1
42. CN1C(=S)SC(/[N+]([O-])=C\c2ccc(Cl)cc2)C1(C)C (stereo unspecified)
43. CC(=O)N1c2c(ccc3ccccc23)C(C)CC12CCCCC2 (stereo unspecified)
44. CCCCn1c(=S)[nH]c2c(oc3ccc(Cl)cc32)c1=O
45. O=C(COC(=O)c1cccs1)NCc1ccc2c(c1)OCO2

assay / entry | 41 | 42 | 43 | 44 | 45
WNV protease inh | 0.39 | x | x | -0.79 | 1.04
MT1-MMP promoter | i | i | i | i | i
Hsc70 ATP site | 1.4% | 6.0% | 0.6% | -4.1% | -5.6%

# Rewritten with each value named: part of the list above
22) CCN(Cc1cc2ccccc2[nH]c1=O)C(=O)c1cccnc1
  WNV protease inh: -0.89; MT1-MMP promoter: i; Hsc70 ATP site: -5.1%
23) CN1CCc2c(sc3c2c(=O)n(-c2ccccc2)c2nncn32)C1
  WNV protease inh: 0.06; MT1-MMP promoter: i; Hsc70 ATP site: 3.9%
24) CNC(=O)c1cc(Nc2nnc(C)c3ccccc23)ccc1OC
  WNV protease inh: x; MT1-MMP promoter: i; Hsc70 ATP site: 2.4%
25) Cc1cc(C)nc(NC2=NCC(=O)N2c2cc(Cl)cc(Cl)c2)n1
  WNV protease inh: -0.35; MT1-MMP promoter: i; Hsc70 ATP site: -5.2%

# Remaining list, next part.
46. Cc1sc(NC(=O)c2ccccc2)c(C(=O)N2CCN(C)CC2)c1C
47. CSC(=O)NC12CC3CC(CC(C)(C3)C1)C2
48. c1ccc2c(c1)CCN(c1nc3ccccc3n3cnnc13)C2
49. O=CNc1ccc(S(=O)(=O)NCc2ccccc2)cc1
50. COc1ccc2nc(SCC(=O)Nc3c(C)cc(C)cc3C)[nH]c2c1

assay / entry | 46 | 47 | 48 | 49 | 50
WNV protease inh | -0.73 | 1.16 | -0.83 | x | x
MT1-MMP promoter | i | i | i | i | i
Hsc70 ATP site | 2.1% | 4.9% | 6.6% | -2.8% | 0.3%

51. CCOc1ccc(S(=O)(=O)Nc2cccnc2)cc1
52. O=C(O)c1cc(-c2ccncc2)nc2ccc(F)cc12
53. CCCCNC(=S)NNC(=O)c1csc(C(C)C)c1
54. Cc1ccsc1C(=O)OCC(=O)c1cc(C)n(CC2CCCO2)c1C (stereo unspecified)
55. COc1cc(CNn2nnnc2N)cc(Br)c1OCc1c(Cl)cccc1Cl

assay / entry | 51 | 52 | 53 | 54 | 55
WNV protease inh | -0.23 | -0.41 | x | -0.88 | x
MT1-MMP promoter | i | i | i | + | i
Hsc70 ATP site | 3.1% | -2.5% | 0.1% | 1.7% | 0.6%

56. CC1=C(C(N)=O)C(c2ccc(Cl)cc2Cl)n2ncnc2N1 (stereo unspecified)
57. O=C(OCc1cc2ccccc2[nH]c1=O)c1cccnc1
58. O=C(Nc1ccc(O)cc1)C1CCCN1S(=O)(=O)c1ccc(F)cc1 (stereo unspecified)
59. CC12CCC(C(=O)N(CSC(=S)N/N=C\c3ccccc3O)C1=O)C2(C)C (stereo unspecified)
60. Cc1occc1-c1nnc(SCC(=O)NCC2CCCO2)n1C (stereo unspecified)

assay / entry | 56 | 57 | 58 | 59 | 60
WNV protease inh | 0.82 | -0.27 | -0.75 | x | 0.53
MT1-MMP promoter | i | i | i | i | i
Hsc70 ATP site | -5.0% | 2.3% | 1.1% | -2.6% | -2.8%

61. Cc1cccc(NCc2ccccc2O)n1
62. Cc1nccn1CCc1n[nH]c(=S)n1Cc1ccccc1
63. CCN(CC)CCNC(=O)C(C(=O)c1ccccc1)n1ccccc1=O (stereo unspecified)
64. Cc1nc(N)c(C#N)c(-c2ccccc2Cl)c1C
65. N#C/C(C(=O)NCc1ccco1)=C1/SC(Cc2ccc(F)cc2)C(=O)N1c1ccccc1 (stereo unspecified)

assay / entry | 61 | 62 | 63 | 64 | 65
WNV protease inh | 0.89 | -0.32 | -0.81 | x | -0.48
MT1-MMP promoter | i | i | i | i | i
Hsc70 ATP site | 0.2% | -12.0% | 7.8% | 3.6% | 2.8%

66. Cc1ccc2c(c1)nnn2C1CCN(CC(=O)N2CCN(c3ccc(F)cc3)CC2)CC1
67. CN1C(=O)N(c2cccc3ccccc23)C(n2cncn2)C1(C)C (stereo unspecified)
68. Cc1cc(NC(=O)c2noc3c2CCc2ccccc2-3)no1
69. Cc1cc(C)c2cc(C#N)c(SCC(=O)NCc3ccco3)nc2c1
70. CCn1c(/N=C/c2c[nH]c3ccccc23)nc2ccccc21

assay / entry | 66 | 67 | 68 | 69 | 70
WNV protease inh | 1.1 | 0.45 | 1.24 | -0.19 | -1.49
MT1-MMP promoter | i | i | i | i | i
Hsc70 ATP site | -5.4% | -11.1% | 1.0% | -38.9% | 1.2%

71. COC(=O)Nc1ccc(S(=O)(=O)N2CCC(C)CC2)cc1
72. CN(CCc1ccccn1)S(=O)(=O)c1ccc2c3c(cccc13)C(=O)N2
73. CCCC(C)c1nnc(NC(=O)CS(=O)(=O)Cc2ccccc2)s1 (stereo unspecified)
74. O=C(Nc1ccc(Oc2ccccc2)cc1)C1CCCN(c2ncccn2)C1 (stereo unspecified)
75. Cc1ccc(-c2nnc(SCC(=O)N3CCOCC3)nc2-c2ccc(C)cc2)cc1

assay / entry | 71 | 72 | 73 | 74 | 75
WNV protease inh | x | 0.6 | x | 0.59 | x
MT1-MMP promoter | i | i | i | i | i
Hsc70 ATP site | 0.2% | 3.8% | 0.8% | -7.1% | 3.6%

76. COc1ccc(S(=O)(=O)Nc2cc(C(=O)NCCC(C)C)ccc2N2CCOCC2)cc1
77. CCc1nnc(NC(=O)CSc2nnc3ncccn23)s1
78. O=C(O)c1cccc(NS(=O)(=O)c2ccc(Cl)c(C(=O)O)c2)c1
79. COc1ccc(N2CCN(CC(=O)Nc3c(C)cc(C)cc3C)CC2)cc1
80. CCCc1ccc(OCCNC(=O)CC)cc1

assay / entry | 76 | 77 | 78 | 79 | 80
WNV protease inh | -0.00347 | -1.24 | -0.3 | -0.87 | 1.37
MT1-MMP promoter | i | i | i | i | i
Hsc70 ATP site | -1.9% | 4.2% | -3.5% | -6.2% | -6.2%

# Rewritten bar-delimited: entries from further up.
no. | compound | WNV protease inh | MT1-MMP promoter | Hsc70 ATP site
55 | COc1cc(CNn2nnnc2N)cc(Br)c1OCc1c(Cl)cccc1Cl | x | i | 0.6%
56 | CC1=C(C(N)=O)C(c2ccc(Cl)cc2Cl)n2ncnc2N1 (stereo unspecified) | 0.82 | i | -5.0%
57 | O=C(OCc1cc2ccccc2[nH]c1=O)c1cccnc1 | -0.27 | i | 2.3%
58 | O=C(Nc1ccc(O)cc1)C1CCCN1S(=O)(=O)c1ccc(F)cc1 (stereo unspecified) | -0.75 | i | 1.1%

# Carrying on.
81. O=C(O)c1cccc(CSc2ncccn2)c1
82. Cc1cc(C)cc(NC(=O)N2CCCC2C(=O)Nc2ccc(-n3cnnn3)c(C)c2)c1 (stereo unspecified)
83. Cc1nnc(SCc2cnc(-c3ccc(C(C)C)cc3)s2)n1C
84. CC(=O)NCCC(=O)Nc1ccc(C)c(F)c1
85. O=C1COc2cccnc2N1

assay / entry | 81 | 82 | 83 | 84 | 85
WNV protease inh | 0.23 | x | 0.23 | -0.23 | -0.09
MT1-MMP promoter | i | i | + | i | i
Hsc70 ATP site | 3.0% | -0.2% | -0.5% | 1.7% | 1.8%

86. CCC(CC)c1nnc(NC(=O)Oc2ccccc2)s1
87. CCc1ccc(NC2=NCC(=O)N2c2ccc3c(c2)OCCO3)cc1
88. O=C(CN1CCN(S(=O)(=O)c2ccc(F)cc2)CC1)Nc1ccc2c(c1)OCCO2
89. COc1ccccc1N(C(=O)c1snc(C(N)=O)c1N)C(C(=O)NC1CCCC1)c1ccco1 (stereo unspecified)
90. CCN(CC)c1nc(Nc2ccccc2)nc(Oc2ccc(=O)n(C)n2)n1
91. O=C(CCS(=O)(=O)c1ccc(Br)cc1)Nc1ccc2c(c1)OCO2

assay / entry | 86 | 87 | 88 | 89 | 90 | 91
WNV protease inh | x | -0.29 | 0.96 | -0.04 | -0.89 | x
MT1-MMP promoter | i | i | i | i | i | i
Hsc70 ATP site | -4.1% | 7.5% | 2.6% | 3.9% | 6.0% | -0.7%

# Screening data (PubChem)
